Compound activity (PubChem BioAssay)
Measles inh: inhibitors of measles virus growth in infected cells; infected Vero cells, GFP fluorescence, 64 h; stronger effect = lower value; z-score (concentration not given with the values); 0.1% of 33,000 active; AID 745;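 active = z-score under -3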;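 note: score is relative to mean and SD of the compound wells of a plate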
Active calls of the source: *.

SMILES	Measles inh
O=c1c2cc(F)ccc2[nH]c(=S)n1Cc1cccnc1	0.61
COc1ccc(OC)c2[nH]c(=O)c(CCNC(=O)c3ccc([N+](=O)[O-])cc3)cc12	0.01
COC(=O)C1C(=O)C2=C(CC1C)NC(C)=C(C(=O)OC(C)C)C2c1ccc(OC)c(O)c1 (stereo unspecified)	0.82
COc1ccc(CCNC(=O)CCN2C(=O)C(C)Oc3ccc(C)cc32)cc1OC (stereo unspecified)	-0.02
O=C(Nc1sc2c(c1C(=O)Nc1ccccc1)CCCC2)c1ccc(F)cc1	-0.74
Cc1ccc(Cn2ccc(NC(=O)CCC(=O)O)n2)cc1	0.11
Oc1ccccc1-c1nc(Nc2ccc(Cl)cc2)c2ccccc2n1	-0.61
CC1=C(C(=O)Nc2cccc(F)c2)C(c2ccccc2C(F)(F)F)C2=C(CC(C)(C)CC2=O)N1 (stereo unspecified)	0.03
CN(C)S(=O)(=O)c1ccc(C(=O)Nc2sc3c(c2C(N)=O)CC(C)(C)NC3(C)C)cc1	0.03
O=c1[nH]c(SCc2cccc(F)c2)nc2c1cnn2-c1ccc(F)cc1	-0.69
CC(=O)N1CCc2cc(S(=O)(=O)CCC(=O)N3CCC(Cc4ccccc4)CC3)ccc21	0.18
Cn1c(=O)c2cc(S(=O)(=O)N(CCO)Cc3ccccc3)ccc2n(C)c1=O	0.13
COc1cccc(C=Nc2cccc(C(=O)O)c2C)c1O	-0.75
CCOc1ccc(-c2n[nH]c3c2C(c2ccc(OC)cc2)N(c2ccc(Br)cc2)C3=O)cc1 (stereo unspecified)	-1.6
COC(=O)C1=C(C)NC(=O)NC1c1cc(OC)c(O)c([N+](=O)[O-])c1 (stereo unspecified)	-0.63
COc1ccc(-n2c(=S)[nH]c3sc4c(c3c2=O)CCC(C(C)(C)C)C4)cc1 (stereo unspecified)	0
CCSCCOC(=O)C1=C(C)NC2=C(C(=O)CCC2)C1c1cccc(F)c1 (stereo unspecified)	-0.37
Cc1ccc(S(=O)(=O)NCCC(=O)Oc2cc3oc(=O)cc(CCl)c3cc2Cl)cc1	0.45
Cc1cc(C)c(C)c(C(=O)c2ccc(Cl)cc2)c1C	0.18
Cn1c(=NC(=O)c2ccc3c(c2)OCCO3)sc2c3ccccc3ccc21	-1
CCc1ccc(S(=O)(=O)N=C2C=C(NS(=O)(=O)c3ccccc3)C(=O)c3ccccc32)cc1	-1.2
CCC(C)NC(=O)CSC1=Nc2ccccc2C2=NC(c3ccccc3)C(=O)N12 (stereo unspecified)	0.11
COc1ccc(-c2cn(-c3ccc(OC)cc3)c(SCC(=O)Nc3ccc(C)cc3)n2)cc1	0.03
CCCOC(=O)C1=C(C)NC2(O)c3ccccc3C(=O)C12O (stereo unspecified)	1.7
Cc1ccc2nc(NC(=O)c3ccc(C)c([N+](=O)[O-])c3)sc2c1	0.08
COCCNC(=O)c1cnn2c1NC(c1ccc(Br)cc1)CC2C(F)(F)F (stereo unspecified)	0.24
Cc1ccccc1NC(=O)CCC(=O)OCC(=O)c1ccc(C)c([N+](=O)[O-])c1	0.24
O=C1CCCc2c1cc(C(=O)Nc1cccc(F)c1)c(=O)n2-c1ccc(Cl)cc1	-0.07
CN(C(=O)CSc1ncccc1C(=O)Oc1ccccc1Cl)c1ccccc1	-0.05
COc1ccc(CNC(=O)Cn2c(=S)[nH]c3ccccc3c2=O)cc1	-0.02
CC(=O)C1C(c2ccccc2F)C(C#N)(C#N)C2C=Cc3ccccc3N12 (stereo unspecified)	1.8
CC(=O)c1ccc(N2CCN(C(=O)c3cc([N+](=O)[O-])ccc3F)CC2)c(F)c1	-0.59
CCOc1ccccc1NC(=O)CCS(=O)(=O)c1cccc2nonc12	-0.75
CCCn1c(=NC(=O)c2ccccc2C)c(C(=O)OCC)cc2c(=O)n3ccccc3nc21	-0.58
CCCS(=O)(=O)N1CCC(C(=O)N2CCCCC2)CC1	-0.78
COc1ccccc1C(=O)NC1CCS(=O)(=O)C1 (stereo unspecified)	-0.36
CCn1cnc2sc(C(=O)Nc3cccc(Cl)c3)c(C)c2c1=O	-0.9
O=C(NCc1ccco1)c1noc2c1CCc1ccccc1-2	1.2
N#Cc1c(N)nc(SCC(=O)c2ccc(Br)cc2)c(C#N)c1-c1cccs1	0.6
Cc1ccc(NC(=O)CN2C(=O)C(=O)c3ccccc32)cc1C	-0.67
Cn1c(=O)c(=O)n(C)c2cc(S(=O)(=O)NC3CCCC3)ccc21	-0.75
CCCn1c(=S)[nH]c2cc(C(=O)N3CCc4ccccc43)ccc2c1=O	-0.36
CC1=C(C(=O)Nc2cc(C)cc(C)c2)C(c2ccc(N(C)C)cc2)NC(=S)N1 (stereo unspecified)	0.84
CC1(C)CC(=O)c2cc(C(=O)Nc3ccc4c(c3)C(=O)NC4=O)c(=O)n(-c3ccccc3)c2C1	0.17
COC(=O)c1nnn(CC(=O)Nc2cc(C(F)(F)F)ccc2Cl)c1C(=O)OC	-0.26
Cc1ccn2c(NC(=O)c3ccc([N+](=O)[O-])cc3)c(-c3cccs3)nc2c1	1.1
COc1cccc(CN2C(=O)CN(C3CCCCC3)C(=O)C2c2ccc(OC)c(OC)c2)c1 (stereo unspecified)	-0.92
Cc1cccn2c(=O)c3cc(C(=O)N4CCCc5ccccc54)sc3nc12	0.11
CCOC(=O)Cn1nc(C(F)(F)F)c(Cl)c1C	0.54
COc1cc(C2NC(=S)NC(C)=C2C(=O)Nc2ccc(C)cc2C)cc(OC)c1OC (stereo unspecified)	0.04
CCC(C)NC(=O)C1(C)CCC(=O)N1Cc1ccc(OC)cc1OC (stereo unspecified)	1.2
O=c1oc(-c2ccco2)nc2ccc(Cl)cc12	-2
COc1cc(C2C3=C(CCCC3=O)Nc3nc(SCc4ccccc4F)nn32)cc(OC)c1OC (stereo unspecified)	-0.82
Cc1cc2c(cn1)C(=Nc1ccccc1C)c1ccccc1-2	-1.1
CC(=O)c1cccc(NC(=O)COc2ccc(Br)cc2C(C)(C)C)c1	-0.81
O=C(c1ccc2c(=O)n(Cc3ccc4c(c3)OCO4)c(=S)[nH]c2c1)N1CCN(c2ccccc2)CC1	1.5
O=C(CCCCCN1C(=O)c2cccc([N+](=O)[O-])c2C1=O)Nc1ccccc1F	-1.1
COc1ccc(N2C(=O)CC(N(Cc3ccco3)C(=O)CCC(=O)O)C2=O)cc1 (stereo unspecified)	0.15
CN1C(=O)C(=O)/C(=C(/O)c2ccc(Cl)cc2)C1c1cccc([N+](=O)[O-])c1 (stereo unspecified)	0.37
CC(C)N1CCN(C(=O)c2ccc(F)cc2)CC1	0.12

Reformatted with the structure last: entries from further up
Measles inh,Structure
0.84,CC1=C(C(=O)Nc2cc(C)cc(C)c2)C(c2ccc(N(C)C)cc2)NC(=S)N1 (stereo unspecified)
0.17,CC1(C)CC(=O)c2cc(C(=O)Nc3ccc4c(c3)C(=O)NC4=O)c(=O)n(-c3ccccc3)c2C1
-0.26,COC(=O)c1nnn(CC(=O)Nc2cc(C(F)(F)F)ccc2Cl)c1C(=O)OC
1.1,Cc1ccn2c(NC(=O)c3ccc([N+](=O)[O-])cc3)c(-c3cccs3)nc2c1
-0.92,COc1cccc(CN2C(=O)CN(C3CCCCC3)C(=O)C2c2ccc(OC)c(OC)c2)c1 (stereo unspecified)
0.11,Cc1cccn2c(=O)c3cc(C(=O)N4CCCc5ccccc54)sc3nc12
0.54,CCOC(=O)Cn1nc(C(F)(F)F)c(Cl)c1C
0.04,COc1cc(C2NC(=S)NC(C)=C2C(=O)Nc2ccc(C)cc2C)cc(OC)c1OC (stereo unspecified)
1.2,CCC(C)NC(=O)C1(C)CCC(=O)N1Cc1ccc(OC)cc1OC (stereo unspecified)
-2,O=c1oc(-c2ccco2)nc2ccc(Cl)cc12
-0.82,COc1cc(C2C3=C(CCCC3=O)Nc3nc(SCc4ccccc4F)nn32)cc(OC)c1OC (stereo unspecified)
-1.1,Cc1cc2c(cn1)C(=Nc1ccccc1C)c1ccccc1-2
-0.81,CC(=O)c1cccc(NC(=O)COc2ccc(Br)cc2C(C)(C)C)c1
1.5,O=C(c1ccc2c(=O)n(Cc3ccc4c(c3)OCO4)c(=S)[nH]c2c1)N1CCN(c2ccccc2)CC1

Continued:
SMILES	Measles inh
Cc1ccc(S(=O)(=O)N2CCC(C(=O)Nc3ccc(F)cc3)CC2)cc1	-1.4
CCSCCOC(=O)C1=C(C)NC2=C(C(=O)CC(c3ccc(OC)cc3)C2)C1c1ccc2c(c1)OCO2 (stereo unspecified)	-0.44
CNC(=O)C1CCN(S(=O)(=O)N2CCOCC2)CC1	-0.15
Nc1ncnc(NCCCO)c1[N+](=O)[O-]	1.6
CCOc1ccc(NS(=O)(=O)c2cccs2)cc1	-0.67
CCCC(=O)Nc1c(C(=O)OCC)[nH]c2ccc(C)cc12	-0.66
COCCCNC(=O)c1sc2ncnc(N3CCOCC3)c2c1C	1.4
O=C(CSc1nc2ccccc2o1)NCc1ccccc1	-2.6
CC(C)COC(=O)C(C)Oc1ccc2c(=O)c(Oc3ccccc3Cl)coc2c1 (stereo unspecified)	-0.32
Cc1ccc(N2CCN(S(=O)(=O)c3ccc(F)c(C(=O)Nc4ccc(F)cc4)c3)CC2C)cc1 (stereo unspecified)	0.33
O=c1c2sccc2nc(SCc2cccc([N+](=O)[O-])c2)n1-c1ccc(F)cc1	1.7
Cc1nc2nc(SCC(=O)NC3CCCC3)nn2c(C)c1Cc1ccccc1Cl	0.19
CCCOC(=O)C1=C(C)NC2=C(C(=O)CC(c3ccc(Cl)cc3)C2)C1c1ccc(OCCC)cc1 (stereo unspecified)	-0.42
CC(C)(C)NC(=O)c1nn2c(C(F)(F)F)cc(-c3ccco3)nc2c1Br	-0.24
Oc1ccc(Br)cc1C1CC(c2ccc3c(c2)OCO3)=NC(c2ccc(F)cc2)N1 (stereo unspecified)	2.3
CC(C)c1c(C#N)c(N)nc2sc(C(=O)c3ccccc3)c(N)c12	-0.13
Cc1cc(C)nc(NS(=O)(=O)c2ccc(NC(=O)C3(c4ccccc4)CCCC3)cc2)n1	-0.26
COc1ccc(C2(c3ccc(O)cc3O)CC(c3ccccc3Cl)NC(=S)N2)cc1 (stereo unspecified)	-0.91
COc1cc(C(=O)Nc2ccc(O)c(-c3nc4cc(C)c(C)cc4o3)c2)cc(OC)c1OC	-0.57
Cc1n[nH]c(C)c1S(=O)(=O)N1CCC(C(=O)NC2CCCCCC2)CC1	1.4
CC(C)c1nc2ccc(Cc3ccc4nc(C(C)C)[nH]c4c3)cc2[nH]1	2.4
CCCCOc1ccc(C2C=C(Nc3ccc(F)cc3)C(=O)N2c2ccc(F)cc2)cc1 (stereo unspecified)	0.75
CCCCOc1ccccc1C1NC(=O)NC(C)=C1C(=O)OCC(F)(F)F (stereo unspecified)	-1.9
OC(c1cccc2ccccc12)c1nc2ccccc2n1Cc1ccccc1 (stereo unspecified)	-1.6
COc1ccc(-c2ccc3c(N)c(C(=O)c4ccc5c(c4)OCCO5)sc3n2)cc1	0.03
COc1cc(OC)cc(-n2nc(C(=O)N3CCC(Cc4ccccc4)CC3)c3ccccc3c2=O)c1	-0.61
Cc1ccc(C)c(CN2C(=O)CSc3ccc(C(=O)NC4CC4)cc32)c1	-0.12
Cc1cc(C(=O)NCc2ccco2)c2ccccc2n1	1.5
O=C(CSc1nc2c(c(=O)n1-c1ccc([N+](=O)[O-])cc1)SCC2)N1CCc2ccccc21	-1.2
O=C(O)c1cccc(N2C(=O)C3C(C2=O)C2C=CC3C23CC3)c1 (stereo unspecified)	-0.82
O=C(O)c1cccc(S(=O)(=O)N2CCCCC2)c1	0.47
CN(C)CCCNS(=O)(=O)c1ccc2c(c1)CCN2C(=O)C1CCC1	0.47
Cc1ccc(NC(=O)Cn2c(C)nc3sc4c(c3c2=O)CCCC4)cc1F	-1.4
COc1ccccc1NC(=O)c1ccccc1NC(=O)c1ccc(C)cc1	-0.05
COc1ccc(OC)c(NC(=O)c2ccc(C(C)(C)C)cc2)c1	-1.6
Cc1ccc(CS(=O)(=O)c2ccc(C(=O)N3CCCC3)cc2[N+](=O)[O-])cc1	0.42
CC(=O)N1c2ccc(S(=O)(=O)N3CCC(C)CC3)cc2CC1C (stereo unspecified)	1
O=C(COc1ccccc1)Nc1ccc(Cl)cn1	-0.49
CN(C(=O)c1nn(-c2ccc(Cl)cc2)c(=O)c2ccccc12)C1CCCCC1	0.49
COc1ccc(-c2cn3c4c(=O)n(C)c(=O)n(C)c4nc3n2CCC23CC4CC(CC(C4)C2)C3)cc1	0.7

Individual results from the results shown.
In Measles inh, Oc1ccc(Br)cc1C1CC(c2ccc3c(c2)OCO3)=NC(c2ccc(F)cc2)N1 (stereo unspecified) is entered as 2.3
In Measles inh, CCCOC(=O)C1=C(C)NC2=C(C(=O)CC(c3ccc(Cl)cc3)C2)C1c1ccc(OCCC)cc1 (stereo unspecified) is entered as -0.42

(list continues)
SMILES	Measles inh
COc1ccc(C(=O)Nc2ccc(NC(=O)c3ccc(C(C)(C)C)cc3)cc2)cc1[N+](=O)[O-]	0.05
Cc1ccc(C(=O)Nc2nc3ccc4nc(C)sc4c3s2)cc1	1.9
CCC(Sc1ncccc1C(=O)OC(C)C)C(=O)N1CCOCC1 (stereo unspecified)	0.22
O=C(CSc1ncnc2sc3c(c12)CCCC3)Nc1cccc2ccccc12	0.96
CC1CCN(C(=O)c2scc3c2CCCC3)CC1	-1
CCC(C)NC(=O)CN(c1cc(C(F)(F)F)ccc1Cl)S(=O)(=O)c1ccccc1 (stereo unspecified)	-0.52
CC(=O)N1CCN(c2ccc([N+](=O)[O-])c(N)c2)CC1	-0.39
Fc1ccc(-c2cn(-c3ccccc3)c3[n+]2CCS3)cc1	0.84
Cc1ccc(CCNC(=O)c2cc(-c3cccnc3)nc3ccc(S(=O)(=O)N4CCCCCC4)cc23)cc1	-0.21
O=S(=O)(Nc1cccc(NS(=O)(=O)c2ccccc2)n1)c1ccccc1	0.16
Cn1c(=O)c2c(nc(SCC(=O)O)n2C)n(C)c1=O	-0.12
Cc1ccccc1NC1CC(C)N(C(=O)CN2C(=O)c3ccccc3C2=O)c2c(C)cccc21 (stereo unspecified)	2.5
CCOC(=O)C1C(=O)C=C(c2ccco2)CC1c1ccc(CC)cc1 (stereo unspecified)	-0.66
O=C(CCCCn1c(=S)[nH]c2ccsc2c1=O)Nc1ccc2c(c1)CCC2	-0.38
COC(=O)C1=CN(Cc2ccccc2)C=C(C(=O)OC)C1c1ccc2c(c1)OCO2	0.25
COc1cc(C2NC(=O)CCC2[N+](=O)[O-])c(OC)cc1Br (stereo unspecified)	-0.1
CCOc1ccc(Nc2cc(N3CCCC3)c3noc4c3c2C(=O)c2ccccc2-4)cc1	-0.13

The list is partial; count on the stated rates, not on these rows.
